VACV Venus inh: qHTS for Stage-Specific Inhibitors of Vaccinia Orthopoxvirus: Venus Reporter Primary qHTS. Vaccinia virus Venus reporter expression, fluorescence. hit rate 0.46% among 330,000. Potency, µM (titrated, usually from 36.5 µM), for the others: at the top dose activity change, negative = inhibition, hits mostly inhibitors; active means well fitted inhibition curve with a large enough effect; inconclusive means small, poorly fitted or top-dose-only effect; inactive means no such curve, though single readings can be large or run the other way; tested in A549 cells; note: nearly all actives have a fitted effect of over 30% in size; inactives centre near -10
Vaccinia mCherry: qHTS for Stage-Specific Inhibitors of Vaccinia Orthopoxvirus: mCherry Reporter Primary qHTS. Vaccinia virus mCherry reporter infection, fluorescence; about a quarter of the inactives have no number. Potency, µM (doses to about 36.5 µM), without a hit: at the highest dose activity change, negative = inhibition, usual class: inhibitors. hit rate 0.63% among 310,000. AID 720579, 2013; active = well fitted inhibition curve with a large enough effect; inconclusive = small, poorly fitted or top-dose-only effect; inactive = no such curve, though single readings can be large or run the other way; tested in A549 cells; note: nearly all actives have a fitted effect of over 35% in size; inactives centre near -10
* = called active by the depositor; i = inactive; ? = inconclusive; . = not tested or not shown; & = joins results of further samples; [ ] = dose if it differs, or a comment. % is set by controls: 0 for no effect and ±100 for the full control effect; potency is the fitted concentration of half-maximal effect. An unsorted share of the library; 0.82% or so of the library scored in one or more.

SMILES | VACV Venus inh | Vaccinia mCherry
O=C(O)COc1ccc(=O)n(-c2ccccc2)n1 | -2.8% | -8.7%
Cc1ccc(NC(=O)N2C(=O)C3(OCCO3)c3ccccc32)cc1 | -15.7% | .
O=C(O)CCCC(=O)NCCc1cccc(Cl)c1 | -2.1% | -15.0%
Cc1ccc(C(=O)Nc2ccccc2C(=O)NC(Cc2ccccc2)C(=O)O)cc1 (stereo not given) | -5.7% | -5.5%
CCOc1ccc(N(C)C(=O)C2CCN(S(=O)(=O)c3c(C)noc3/C=C/c3ccc(C)cc3)CC2)cc1 | -4.6%[7.34 µM] | -11.7%[7.34 µM]
S=C1SCCN1Cc1ccccc1 | -8.2% | i
COC(=O)c1ccccc1NC(=O)c1ccc2c(=O)n3c(nc2c1)CCCCC3 | -5.9% | -1.8%
COc1cccc(OCc2ccc(Cn3nc(NC(=O)NCCc4ccc(OC)c(OC)c4)c4ccccc43)cc2)c1 | 3.5% | -24.8%
Cc1cccc(C2CC(=O)Nc3cc4c(cc32)OCO4)c1 (stereo not given) | -18.7% | -20.5%
Cc1ccc(S(=O)(=O)NNc2c3ccccc3nc3ccc(Cl)cc23)cc1 | -19.1% | -12.2%
Cc1cc(SCC(=O)Nc2ccc(F)cc2F)nc(=O)[nH]1 | -4.1% | -10.7%
CCC(=O)N(C(=O)CC)N1CCN(c2ccncc2S(=O)(=O)N2CCCCC2)CC1 | -11.7% | -12.0%
Cc1ccccc1NC(=O)COc1ccc2oc(=O)cc(C)c2c1 | -12.8% | i
Cc1nn(Cc2ccccc2Cl)c(Cl)c1C(=O)OCC(=O)NC(=O)NC1CCCCC1 | -10.3% | -12.6%
O=C(/C=C/c1ccccc1)Nc1nnc(SCC(=O)c2ccc3ccccc3c2)s1 | 4.7% | -1.0%
CCCCCCCCCC(=O)N[C@@H]1c2cc(OC)c(OC)cc2C[C@H]1O | 0.0% | i
N=C(N)N | 1.7% | 4.8%
COc1ccc(CNC(=O)CN2C(=O)COc3ccccc32)c(OC)c1 | -10.7% | -6.5%
CCc1ccc(C2C(C(=O)Nc3ccccc3)=C(C)Nc3c(C(=O)Nc4ccc(C)cc4)cnn32)cc1 (stereo not given) | -10.6% | i
Cc1ccc2nc(C)c3c(c2c1)OC(C(C)(Cl)Br)C3 (stereo not given) | -4.4% | 17.2%
CCC(NC(C)C)C(O)c1ccc(O)c(O)c1 (stereo not given) | -11.6% | -12.6%
C[C@H](CO)N1C[C@H](C)[C@H](CN(C)S(=O)(=O)c2ccc3ccccc3c2)OCc2cnnn2CCCC1=O | -19.1% | i
O=C(Nc1nnc(CC2=CCCCC2)s1)c1cccs1 | -4.1% | -13.6%
CSCc1ccc(C(=O)NCCSc2ccc(Br)cc2)cc1 | -16.6% | -15.3%
CCc1ccc(-c2nc(CS(=O)CC(=O)NCCN3CCCCCC3)c(C)o2)cc1 (stereo not given) | -28.6% | -5.0%

(list continues)
SMILES | VACV Venus inh | Vaccinia mCherry
Cn1c(Cn2nnc3ccccc32)nnc1SCC(=O)Nc1nccs1 | -1.1% | i
Cc1cn([C@H]2C[C@H](O)[C@@H](CNCc3ccc(Oc4cc(-n5cccn5)ncn4)cc3)O2)c(=O)[nH]c1=O | -6.7% | i
CCOc1ccc(-n2nc3c(SCCN4CCCC4)nnc(C)c3c2C)cc1 | -16.7% | -28.2%
CCCNC(=O)c1cc(C2CCCN(C(=O)c3cc(C(C)(C)C)nn3C)C2)on1 (stereo not given) | 0.6% | i
CCC(C)Sc1ccc(-c2nc3cnccn3c2NC2CCCCC2)cc1 (stereo not given) | ? | -31.7%&-7.5%
Cc1cccnc1NC(=O)c1ccc(Cl)c(S(=O)(=O)N2CCCCCC2)c1 | -20.1% | -11.1%
Cc1cc(OCCNCCO)cc(C)c1Cl | -11.8% | .
CC(=O)Nc1cccc(-c2ccnc3c2CC(C(=O)NCCC(F)(F)F)O3)c1 (stereo not given) | -21.7% | 11.4%
Cn1cccc1-c1cc(C(=O)N/N=C/c2ccc(Cl)cc2)[nH]n1 | -23.2% | i
COc1ccc(-c2noc(N3CCC(C(=O)N4CCN(c5cccc(OC)c5)CC4)CC3)n2)cc1 | -9.7%[7.34 µM] | -2.5%[7.34 µM]
O=C(COC(=O)c1ccco1)Nc1nc2ccccc2s1 | -23.3% | -4.3%
COc1ccc(S(=O)(=O)N2CCC(c3nnc(-c4ccccc4C)o3)CC2)c(OC)c1 | -4.9% | -9.3%
NS(=O)(=O)c1ccc(CCNc2nn3c(-c4cccc(OC(F)(F)F)c4)cnc3s2)cc1 | ? | ?
CSc1ncc(-c2ccccc2)cn1 | -9.9% | i
CC(C(=O)N1CCCc2c1c(=O)oc1ccc(O)cc21)N1CCc2ccccc2C1 (stereo not given) | -28.1% | .
Cc1cccc(C(=O)NCC(=O)N2CCCC2)c1 | -8.6% | -14.3%
C[C@H](NC(=O)CCCn1nnc2ccccc2c1=O)C(=O)O | -3.1% | i
CCOC(=O)c1ccc(N2C(=O)c3n[nH]c(C)c3C2c2ccccn2)cc1 (stereo not given) | -14.7% | i
O=C(c1cc(C(=O)NCc2ccccc2)c(=O)n(Cc2ccccc2)c1)c1cc(Br)ccc1O | ? | ?
O=C(NCc1ccccc1Cl)c1[nH]c(C(F)(F)F)nc1-c1ccccc1 | -3.9% | 3.2%
Cc1ccc(-n2c(NN)nc3ccccc3c2=O)c(C)c1 | -10.9% | i
Cc1ccc(-c2noc(CCCC(=O)NC3CCCCC3)n2)cc1 | -19.7% | -24.6%
Cc1oc2ncnc(N3CCOCC3)c2c1C(=O)NCc1ccc(Cl)cc1 | -6.4% | -14.0%
CN(C)CCCN(C(=O)c1ccc(C(=O)c2ccccc2)cc1)c1nc2cc3c(cc2s1)OCO3 | ? | ?
Cn1cccc1C(=O)OCC(=O)Nc1cccc(S(=O)(=O)N2CCOCC2)c1 | -6.0% | i

Three structures from above, arranged by count of non-hydrogen atoms, smallest number first.
SMILES | VACV Venus inh | Vaccinia mCherry
O=C(NCc1ccccc1Cl)c1[nH]c(C(F)(F)F)nc1-c1ccccc1 | -3.9% | 3.2%
Cc1cccnc1NC(=O)c1ccc(Cl)c(S(=O)(=O)N2CCCCCC2)c1 | -20.1% | -11.1%
CN(C)CCCN(C(=O)c1ccc(C(=O)c2ccccc2)cc1)c1nc2cc3c(cc2s1)OCO3 | ? | ?

Remaining list, next part
SMILES | VACV Venus inh | Vaccinia mCherry
Cc1cc(NC(=O)c2c(C)noc2C)no1 | -19.6%[7.34 µM] | -24.3%[7.34 µM]
COc1cccc(CNC(=O)c2oc3c(c2C)-c2nn(Cc4cccc(Cl)c4)cc2CC3)c1OC | -9.3% | -14.1%
COc1ccc2c(c1)CCC2=O | -11.7% | 40.3%[activator]
CCN(C(=O)COC(=O)c1sccc1C)c1c(N)n(Cc2ccccc2)c(=O)[nH]c1=O | -0.5% | -14.7%
CC1CCN(C(=O)C2c3ccccc3C(=O)N3CCc4ccccc4C23)CC1 (stereo not given) | -5.9% | i
CC1=C(C(=O)OC(C)C)C(C2CC=CCC2)NC(=O)N1 (stereo not given) | -19.2% | -12.0%
O=C(Nc1ccccc1N1CCCC1)c1ccccc1Cl | -12.8% | -14.0%
Cc1ccc(C(C)C)c(OCC(=O)NCC(c2cccs2)N2CCOCC2)c1 (stereo not given) | -3.5% | -5.7%
Cn1cnnc1SCc1ccc(C#N)cc1Cl | -18.9% | -4.8%
COc1cccc(C2SCC(=O)N2c2cccc(C)c2)c1OC (stereo not given) | -2.3% | -11.0%
CCC(C)(C)n1nnnc1C(C(C)C)N1CCSCC1 (stereo not given) | -5.3% | i
O=C(O)C1CC(Br)C(Br)CC1C(=O)O (stereo not given) | -15.0% | i
CCOc1ccccc1C(=O)NCC(=O)OCCOc1cccc(Cl)c1 | -0.7% | -7.2%
CC(C)(C)c1nnc(NC(=O)c2ccc3c(c2)OCO3)s1 | -17.7% | ?
CCOc1ccc(/C=C/C2=NNC(=O)CC2)cc1 | -17.6% | -11.3%
CCC(CC)C(=O)c1c[nH]c(C(=O)N2CCN(c3ccc(OC)cc3)CC2)c1 | -12.8% | -2.6%
CC(C)=CCc1c(O)cc2c(c1O)C(=O)CC(c1ccc(O)cc1)O2 (stereo not given) | -6.5% | -4.8%
O=C(NCc1ccco1)C(c1cccs1)N(C(=O)C1COc2ccccc2O1)c1cccc(O)c1 (stereo not given) | ? | -14.6%
O=C1CC(c2cccc(O)c2)c2c(nc(SCc3ccccc3F)[nH]c2=O)N1 (stereo not given) | 3.3% | i
CCC(=O)N1CCc2cc(S(=O)(=O)Nc3ccccc3C)ccc21 | 2.7% | 10.8%
C[C@H]1CN([C@@H](C)CO)C(=O)CCCn2nncc2CO[C@H]1CN(C)C(=O)Nc1ccnc(N2CCOCC2)c1 | -13.9% | 4.5%
CCCCOC(=O)Nc1ccc(S(=O)(=O)Nc2ccc([N+](=O)[O-])cc2)cc1 | -12.1% | i
CCCCC1(C)NC(=S)N2N1C(=S)NC2(C)CCCC (stereo not given) | -10.6% | 0.5%
CCOc1ccc(-c2cc(C(=O)OC)nc3c2c(=O)n(C)c(=O)n3C)cc1 | -6.4% | i
C=C1C=C(C(F)F)n2ncc(C(=O)NCCc3ccc(Cl)cc3)c2N1 | -8.5% | 8.8%

Going on with the list.
SMILES | VACV Venus inh | Vaccinia mCherry
CCc1ccc(C2c3c(-c4ccccc4O)n[nH]c3C(=O)N2Cc2cccnc2)cc1 (stereo not given) | -23.5% | -24.9%
CC(C)Cn1cnc2c(SCc3ccc(Cl)cc3)nc(N)nc21 | ? | ?
O=C(Nc1ccccc1C(=O)Nc1ccncc1)c1ccccc1 | -8.7% | i
COc1cc(CCC(=O)NNC(=O)c2ccc(Cl)cc2)cc(OC)c1OC | -16.3% | -0.2%
CC(C)(C)c1ccc(S(=O)(=O)c2cnc(SCC(=O)Nc3ccc4c(c3)OCCO4)[nH]c2=O)cc1 | -5.3%[7.34 µM] | -2.6%[7.34 µM]
Cc1c(C)n(C(=O)CSc2nc3ccccc3[nH]2)c2ccccc12 | -4.7% | -11.0%
C=CC[C@@H](CC(=O)OC(C)(C)C)C(=O)OC[C@H]1CCCN1C(=O)[C@@H](CC=C)CC(=O)N[C@H](CO)Cc1ccccc1 | -16.5% | -9.7%
O=C(O)C1C2CCC(O2)C1C(=O)Nc1cccc(Cl)c1 (stereo not given) | -13.8% | -3.6%
CCCCN1CCNC[C@@H]1Cc1ccc(O)cc1 | -18.2% | i
O=C1C=C(c2ccccc2)CC(c2ccc(F)cc2)C1 (stereo not given) | -11.6% | -2.6%
COc1cccc(CC(=O)Nc2ccccc2C(=O)N2CCOCC2)c1 | 4.7% | -10.7%
O=C(O)C1C2CC2CN1C(=O)c1ccc(Cl)cc1Cl (stereo not given) | -4.9% | -4.5%
Cc1ccc(-n2nc(CO)c(C(=O)NCCCCc3ccccc3)n2)cc1C | -4.8% | -0.6%
CCOC(=O)C1=C(O)CSC1=Nc1ccc(C)cc1 | -13.3% | -13.1%
COc1cccc(N2C(=O)[C@H]3C(C(=O)c4cnccn4)=NN[C@H]3C2=O)c1 | -6.6% | -2.1%
O=C(O)CCCC(=O)NCc1c(Cl)cccc1Sc1ccc(Cl)cc1 | -4.4% | -9.7%
COc1ccc(OC)c(NC(=O)c2oc3c(c2C)-c2nn(Cc4ccc(Cl)cc4)cc2CC3)c1 | -21.8% | -21.1%
CCc1cccc(NS(=O)(=O)c2c(C)[nH]c(=O)[nH]c2=O)c1 | -7.8% | -7.3%
CCOC(=O)C1=C(C)NC(=O)NC1c1ccc(N(C)C)cc1 (stereo not given) | -15.8% | -21.9%
CC1CCN(S(=O)(=O)c2cccc(C(=O)NC3CCCCC3)c2)CC1 | -14.0% | -6.0%
Cc1cccc(CNC(=O)c2cnn(-c3ncc4c(n3)-c3ccccc3CC4)c2C2CC2)n1 | ? | ?
Cc1nn(CC(=O)NC(C)c2ccccc2)c(C)c1[N+](=O)[O-] (stereo not given) | -9.7% | -9.1%
CCOc1cc(C(=O)NC(C)COC)cc(OCC)c1OCC (stereo not given) | -5.7% | -6.9%
CCN1CCCC(NC(=O)c2cc([N+](=O)[O-])ccc2OC)C1 (stereo not given) | -12.2% | i
COCCNC(=O)COc1ccc(Oc2ccccc2)cc1 | -12.3% | -12.2%

The final 3 records of the section above are carried over, then new ones follow.
SMILES | VACV Venus inh | Vaccinia mCherry
CCOc1cc(C(=O)NC(C)COC)cc(OCC)c1OCC (stereo not given) | -5.7% | -6.9%
CCN1CCCC(NC(=O)c2cc([N+](=O)[O-])ccc2OC)C1 (stereo not given) | -12.2% | i
COCCNC(=O)COc1ccc(Oc2ccccc2)cc1 | -12.3% | -12.2%
COc1cccc2c1OCC/C2=N\NC(=O)COc1ccc(C)cc1 | -7.3% | -4.5%
O=C(CSc1ccc2ccccc2c1)Nc1ccc(S(=O)(=O)Nc2nccs2)cc1 | -1.1% | i
Cc1cccc2[nH]c3c(=O)n(CCN4CCNCC4)cnc3c12 | -10.7% | .
Cc1cccnc1-n1c(CN2C(=O)c3ccccc3C2=O)nc2ccccc2c1=O | 8.7% | 3.4%
Cc1ccc(-c2[nH]ncc2/C=N/n2c(COc3ccccc3C)nc3ccccc3c2=O)cc1 | 11.2µM* | ?
Cc1c(NC(=O)C2CCCCC2)cc(C(=O)N2CCOCC2)cc1[N+](=O)[O-] | -9.4% | -20.6%
Cn1c(=O)c2c(ncn2CC(=O)Nc2ccccc2Sc2ccccc2)n(C)c1=O | -20.0% | -11.3%
COc1ccc(C(=O)COC(=O)c2cccnc2Cl)c(OC)c1 | -19.0% | -0.6%
CCNc1nc(NCC)n2c(SC(C(=O)Nc3cc(C)ccc3OC)c3ccccc3)nnc2n1 (stereo not given) | -6.6% | -15.8%

Source: PubChem BioAssay (National Center for Advancing Translational Sciences (NCATS))
